AmpC inh no det: inhibitors of E. coli AmpC beta-lactamase without detergent; Potency, µM (titrated, usually from 28.7 µM), inactives show at the top dose activity change, negative = inhibition; P00811; AmpC nitrocefin hydrolysis, absorbance 480 nm, no detergent; potencies from a single point are estimates; 1.8% of 71,000 active; active = falling curve, for most hits resting on a single point; inconclusive = weak or doubtful change; inactive = flat or rising curve; further: % of control where 0% means no effect; about half of the hits show no inhibition at the top dose; a quarter of the inactives give rising signals
Target sequence (P00811 whole entry, looked up): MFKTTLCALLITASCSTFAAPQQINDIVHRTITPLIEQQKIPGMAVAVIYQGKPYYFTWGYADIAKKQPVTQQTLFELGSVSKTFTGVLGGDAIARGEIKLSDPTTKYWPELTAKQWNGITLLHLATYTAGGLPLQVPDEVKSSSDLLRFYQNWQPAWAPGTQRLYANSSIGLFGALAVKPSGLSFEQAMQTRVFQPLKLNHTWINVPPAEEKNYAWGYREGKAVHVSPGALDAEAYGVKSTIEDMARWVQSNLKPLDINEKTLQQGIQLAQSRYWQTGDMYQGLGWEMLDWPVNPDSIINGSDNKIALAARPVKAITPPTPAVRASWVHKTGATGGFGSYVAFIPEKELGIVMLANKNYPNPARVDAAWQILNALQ
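AmpC in 20 mM phosphate buffer pH 7.0 was preincubated 15 min at room temperature with compounds. Nitrocefin (800 uM stock) was then added and hydrolysis followed at 480 nm every 20 s for 4 min.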
* marks the source's active call; other numbers are inactive results; u = inconclusive; [ ] = dose if it differs, or a comment. Potency means the concentration at half of the fitted maximal effect.

SMILES | AmpC inh no det
C=CCOc1ccc(/C(CC)=N/O)c(OC)c1 | 3%
COC(=O)COc1ccc(S(=O)(=O)N2CCN(c3ccccc3F)CC2)cc1C | 36%
Cc1ccccc1NC(=O)c1cnn(-c2ccccc2)c1NC(=O)c1ccco1 | -4%
Cc1ccc(-c2noc(CCC(N)=O)n2)cc1 | -3%
O=C(Nc1nccs1)c1cc(S(=O)(=O)N2CCOCC2)ccc1Cl | 4%
Cc1c(Nc2ncccc2C(=O)O)cccc1C(F)(F)F | -3%[12.8 µM]
FC(F)(F)c1ccccc1-c1cncnc1NCc1ccccc1 | 39%
O=C(NCCN1CCN(c2ccccc2F)CC1)C1CC(=O)N(C2CCCC2)C1 (stereo not drawn) | 34%
Cc1ccc2c(c1)C1CN(C)CCC1N2S(=O)(=O)c1ccccc1 (stereo not drawn) | 21%
CCC(C)(C)n1nnnc1C(c1ccc(OC)c(OC)c1)N1CCN(c2ccccc2)CC1 (stereo not drawn) | 113%
CCC[C@@H]1C[C@@]1(CCC)C(NC(=O)c1cccs1)c1ccc(Cl)cc1 (stereo partly drawn) | -14%
Cc1noc(/C=C/N(C)C)c1S(=O)(=O)N1CCCC(C(=O)N2CCc3ccccc32)C1 (stereo not drawn) | 15%
CC(=O)c1cccc(NC(=O)C2CCN(S(=O)(=O)c3ccc(F)cc3)CC2)c1 | 10%
O=C(NCc1ccc2c(c1)OCO2)c1ccncc1 | -5%
CCC(Sc1nc(C)cc(=O)[nH]1)C(=O)Nc1nnc(C)s1 (stereo not drawn) | 1%
CCC1(c2cccc(Cl)c2)NC(=O)N(Cc2cc(C(=O)OC)c(C)o2)C1=O (stereo not drawn) | 21%
Oc1ccc(CNc2ccccc2F)c2cccnc12 | -11%
COc1ccc(C2=[N+]([O-])C(C)(C)N(O)C2(C)C)cc1 | 7%
CC1(C)Cc2nc3sc4c(SCC(=O)NCc5ccco5)ncnc4c3cc2CO1 | 64%
CCOC(=O)CCSc1nc2c(c(C(F)(F)F)c1C#N)CCC2 | 19%
CCCN(C(=O)Cc1nc(N)n[nH]1)C1(C(=O)Nc2c(C)cccc2C)CCCCC1 | 16%
NC(=O)c1c(N)sc2c1CCCC2 | -12%
O=C(Nc1ccc(N2CCCCC2)cc1)c1ccc(F)cc1 | -14%
CC(Sc1nc(N2CCOCC2)nc(N2CCOCC2)n1)C(=O)Nc1ccccc1 (stereo not drawn) | 32%
COC(=O)[C@@]1(Cc2ccc(F)cc2)[C@H]2c3cc(C(=O)N(C)C)n(Cc4ccc(C)o4)c3C[C@H]2CN1C(=O)c1ccccc1 | 171%
ClCC(Cl)CCl | 3%
O=C(Nc1cccc(F)c1)N1CCCC2(CCN(S(=O)(=O)c3ccccc3)CC2)C1 | 18%
COC(=O)c1sc(NC(=O)c2cc3c(s2)CCCC3)nc1C | 8%
COc1ccc(-c2cc(C(F)(F)F)nc(SCCC(=O)Nc3cc(C)on3)n2)cc1 | -3%
N#CCCn1ncn(-c2ccccc2)c1=S | -8%
COc1ccccc1OCC(O)Cn1nc(C)cc1C (stereo not drawn) | u
CCCCC(=O)Nc1cc(N(C)C)nc2ccccc12 | 8%
CCOc1cc2[nH]c(=O)n(CCCCC(=O)N3CCCCCC3)c(=O)c2cc1OCC | 95%
CCOC(=O)CN1CC23C=CC(O2)C(C(=O)NCc2ccc(F)cc2)C3C1=O (stereo not drawn) | 0%
CCOC(=O)CC(=O)CSc1nc2ccc(C)cc2cc1C#N | 20%
COC(=O)N1CCC2(CCN(Cc3ccc(C#N)cc3)CC2)CC1 | 4%
COc1ncc2nc(-c3ccc(F)cc3)c(=O)n(Cc3ccc(F)cc3)c2n1 | 13%
O=C1CCC2CCCCC2(O)O1 (stereo not drawn) | -7%
c1ccc(Nc2ncnc3ccc(-c4cccnc4)cc23)cc1 | -2%
O=C(NCc1ccc(F)cc1)C1CC(=O)N(CCc2ccccc2)C1 (stereo not drawn) | 23%
c1cnc(N2CC3(CCNCC3)C2)nc1 | -6%
CCCCOC(=O)CSc1nnc(-c2ccc(Cl)cc2Cl)o1 | 6%
CCN(CC)S(=O)(=O)c1ccc2[nH]cc(C(=O)NCCc3ccccc3)c(=O)c2c1 | 6%
Cn1c2c(c(=O)n(C)c1=O)CN(Cc1ccc3c(c1)OCO3)CN2 | 84%
COCCCn1c(SCC(=O)Nc2cccc(C)n2)nnc1-c1ccco1 | 17%
CSc1nsc(SC)c1C(=O)NCCNS(=O)(=O)c1ccc(C)cc1 | -6%
O=C(O)c1cccnc1 | -12%[12.8 µM]
COC(=O)[C@@]1(Cc2ccc(OC)cc2)[C@@H]2C(=CC(=O)[C@H]2CC(=O)C(=O)N2CCCC2)CN1C(=O)c1ccccc1 | 152%
CC(C)(C)c1ccc(-c2nnc(SCc3ccc(Cl)cc3)n2-c2cccc(C(F)(F)F)c2)cc1 | 1%[5.75 µM]
Cn1cc(Br)c(C(=O)NC2CCCCC2)n1 | 4%

Remaining list, next part:
SMILES | AmpC inh no det
CCOC(=O)c1c(C)oc2c1c(C(c1ccncc1)N1CCOCC1)c(O)c1ccccc12 (stereo not drawn) | 109%
Nc1c(OCC(=O)O)ccc2cc(S(=O)(=O)O)ccc12 | 1%[5.75 µM]
CCn1c(SCC(=O)Nc2cc(C)on2)nc2sc3c(c2c1=O)CCCC3 | 5%
CC(NC(=O)c1ccc(Cl)cc1)C(=O)NC1=NCCS1 (stereo not drawn) | -1%
CCN(CC)C(=O)N1CCC(NC(=O)c2ccc(C(C)(C)C)cc2)CC1 | 114%
O=c1c(-c2ccccc2)nc2cnc(Nc3ccccc3)nc2n1C[C@H]1CCCO1 | 5%
CCCn1c(C)nc2c(NC3CCCCC3)nc(C)nc21 | 45%
CCOc1ccccc1OCC(=O)O | -7%
CCOC(=O)c1cnn2c(C(F)F)cc(C3CC3)nc12 | -3%
O=c1[nH]c(SCc2cc(=O)n3ccccc3n2)nc2c1CCC2 | -6%
O=C(c1ccco1)N1CCN(S(=O)(=O)c2ccc3c(c2)CCN3C(=O)C2CC2)CC1 | 63%
O=C(CSc1nnc(Cc2cc(=O)[nH]c(=O)[nH]2)n1-c1ccccc1)N1CCCC1 | -17%
COc1cc(C(=O)OCC(=O)c2c[nH]c3ccccc23)ccc1OCC(=O)N1CCOCC1 | 80%
Cc1ccc(-n2[nH]c(C)c(/C=N/c3ccccn3)c2=O)cc1 | 10%
O=C(NCC(c1cccnc1)N1CCN(c2ccccc2F)CC1)OCc1ccccc1 (stereo not drawn) | 97%
Cc1ccc(S(=O)(=O)N2CCN(C(=O)CN3CCc4ccccc4C3)CC2)cc1 | 100%
CN(C)c1ccc(NC(=O)CN2CCC(C(=O)c3ccc(F)cc3)CC2)cc1 | 66%
CN(C)C(=O)c1ccc(-c2cncnc2Nc2ccc(F)cc2)cc1 | 18%
CCCOc1ccccc1C1NC(=O)NC(C)=C1C(=O)OCCOC(C)C (stereo not drawn) | 23%
CCOc1ccc(NC(=O)Cn2nnc(-c3ccccc3NC(=O)C3CC3)n2)cc1 | -3%
C=COCCNC(=O)Nc1ccc(Cl)cc1Cl | -4%
O=C(Nc1ccccc1C(=O)OC1CCOC1=O)c1ccco1 (stereo not drawn) | 0%
N#Cc1cccc(NC(=O)N2CCC3(CC2)CCN(C(=O)c2ccco2)CC3)c1 | 36%
COc1ccc(C2CC(c3ccc(OC)cc3)n3nc(NC(=O)c4ccco4)nc3N2)cc1 (stereo not drawn) | 53%
Cc1ccccc1Br | -9%
Cc1csc(NC(=O)c2ccccc2O)n1 | -17%
O=C(NCCN1CCOCC1)Nc1ccc(Cl)cc1Cl | 2%
CC1CCCCN1CC(=O)NCc1ccc2c(c1)OCO2 (stereo not drawn) | -14%
Cc1ccc(S(=O)(=O)N2CCOCC2)cc1C(=O)O | 7%
CSc1nsc(SCC(=O)N2CCN(c3ccccc3)CC2)n1 | -8%
COc1cccc(C2C(C(=O)OCc3ccccc3)=C(C)Nc3ncnn32)c1OC (stereo not drawn) | 52%
O=C(CN1CCCN(Cc2ccc(F)cc2Cl)C1=O)NCc1ccccc1 | 35%
CCNc1ncc2nc(-c3cccs3)c(=O)n(C)c2n1 | 16%
Cc1cccc(OCc2nnc(SCC(=O)Nc3cc(C)on3)n2C)c1 | u
COC(=O)c1ccc(C(/C=C/[C@@H](C)C(=O)N(C)Cc2ccccc2)NC(=O)OCc2ccccc2)cc1 (stereo partly drawn) | 28%
Cc1ccc2cc(CN(C(=O)c3cccnc3)C(C)C)c(=O)[nH]c2c1 | 23%
CC(C)(C)n1ncc2c(=O)n(CC(=O)NCc3ccc(F)cc3)cnc21 | 0%
CC12C(=O)N(c3nccs3)C(=O)C1C1C=CC2C1 (stereo not drawn) | -7%
CC(C)Oc1ccccc1C1CC(=O)Nc2cc3c(cc21)OCO3 (stereo not drawn) | 13%
NS(=O)(=O)c1cc2c(cc1Cl)N[C@H](Cc1ccccc1)NS2(=O)=O | -11%[5.75 µM]
O=C(NC1CC2CCCC(C1)N2CC(=O)N1CCCc2ccccc21)C1CCCCC1 (stereo not drawn) | 32%
COc1ccc(C(C)=O)cc1COC(=O)c1ccc2c(c1)OCO2 | -6%
O=C(COC(=O)c1ccc(Br)o1)Nc1nc2ccccc2s1 | 5µM*
COc1ccc(CC(=O)NC(C)c2nnc(SCc3nc4ccccc4c(=O)[nH]3)n2C)cc1 (stereo not drawn) | 12%
C[C@H]1C2=C3C(CC[C@H]4C(OCc5ccc(F)cc5C(F)(F)F)OC[C@](C)([C@@H]34)N(C(=O)OC(C)(C)C)C2)C(CO)C1CO (stereo partly drawn) | 145%
Cc1cc2oc(=O)cc(Cn3ccnc3)c2cc1C | 6%
Cc1cc(C)c(C)c(S(=O)(=O)NCc2cccnc2)c1C | -7%
O=S(=O)(c1ccc2c(c1)OCCO2)N1CCC(c2nc3ccc(Cl)cc3[nH]2)CC1 | -24%
S=c1[nH]nc(C2COc3ccccc3O2)o1 (stereo not drawn) | -17%
COc1ccc(Oc2ncc3nc(-c4ccccc4)c(=O)n(C[C@H]4CCCO4)c3n2)cc1 | 78%

Continued, overlapping the part above by 3 compounds.
SMILES | AmpC inh no det
O=S(=O)(c1ccc2c(c1)OCCO2)N1CCC(c2nc3ccc(Cl)cc3[nH]2)CC1 | -24%
S=c1[nH]nc(C2COc3ccccc3O2)o1 (stereo not drawn) | -17%
COc1ccc(Oc2ncc3nc(-c4ccccc4)c(=O)n(C[C@H]4CCCO4)c3n2)cc1 | 78%
COc1nc(-c2ccc(C)cc2)ccc1-c1noc(-c2cccnc2)n1 | 79%
O=C(NC1CCCC1)C(c1ccccc1F)N(C(=O)c1ccco1)C1CCCC1 (stereo not drawn) | 64%
CCOc1ccc2[nH]c(=O)c(C(c3nnnn3Cc3ccco3)N3CCCC(C)C3)cc2c1 (stereo not drawn) | 11%
CC(=O)Oc1ccccc1C(=O)Nc1ncc([N+](=O)[O-])s1 | -16%
O=C(c1ccco1)N1CCN(C(=O)C2CC(c3ccc(Cl)c(Cl)c3)=NO2)CC1 (stereo not drawn) | 100%
Cn1nc(C(=O)NCc2cccnc2)c2ccccc2c1=O | 9%
Cc1ccccc1C(=O)N1CCN(c2ccc(NC(=O)c3ccco3)cc2Cl)CC1 | 41%
C=CCNC(=O)NC(=O)COC(=O)CCCSc1nc2ccccc2[nH]1 | 9%
CCNc1ncc2nc(-c3ccc(OC)cc3)c(=O)n(-c3ccc(OC)cc3)c2n1 | 5%
COC(=O)Nc1cc(C(F)(F)F)ccc1N1CCN(c2ccccc2)CC1 | -8%

An excerpt of these results, field by field.
Cc1ccccc1C(=O)N1CCN(c2ccc(NC(=O)c3ccco3)cc2Cl)CC1
  AmpC inh no det: 41%
C=CCNC(=O)NC(=O)COC(=O)CCCSc1nc2ccccc2[nH]1
  AmpC inh no det: 9%
CCNc1ncc2nc(-c3ccc(OC)cc3)c(=O)n(-c3ccc(OC)cc3)c2n1
  AmpC inh no det: 5%
COC(=O)Nc1cc(C(F)(F)F)ccc1N1CCN(c2ccccc2)CC1
  AmpC inh no det: -8%

The listing picks up, repeating the 7 entries before the break.
SMILES | AmpC inh no det
CC(=O)Oc1ccccc1C(=O)Nc1ncc([N+](=O)[O-])s1 | -16%
O=C(c1ccco1)N1CCN(C(=O)C2CC(c3ccc(Cl)c(Cl)c3)=NO2)CC1 (stereo not drawn) | 100%
Cn1nc(C(=O)NCc2cccnc2)c2ccccc2c1=O | 9%
Cc1ccccc1C(=O)N1CCN(c2ccc(NC(=O)c3ccco3)cc2Cl)CC1 | 41%
C=CCNC(=O)NC(=O)COC(=O)CCCSc1nc2ccccc2[nH]1 | 9%
CCNc1ncc2nc(-c3ccc(OC)cc3)c(=O)n(-c3ccc(OC)cc3)c2n1 | 5%
COC(=O)Nc1cc(C(F)(F)F)ccc1N1CCN(c2ccccc2)CC1 | -8%
CCN(CC)S(=O)(=O)c1cccc(-c2nnc(SCCOc3ccc(Cl)cc3)o2)c1 | 25%
Cc1cc(OC(=O)CCNC(=O)OC(C)(C)C)c2c3c(c(=O)oc2c1)CCC3 | 70%
O=C(O)CCC(=O)Nc1ccccc1N1CCOCC1 | 3%
O=C(COC(=O)c1ccc(Br)o1)Nc1ccc(S(=O)(=O)N2CCCC2)cc1 | -14%
CCN1CCc2c(sc(NC(=O)c3ccc(S(=O)(=O)N4CCOCC4)cc3)c2C(N)=O)C1 | 94%
COc1cccc2c(=O)n(CC(=O)N3CCN(c4ccccc4)CC3)ccc12 | 4%
Cn1cnc(S(=O)(=O)Nc2ccc(C(F)(F)F)cc2)c1 | 9%
C=CCN1C(=O)C(CC(=O)NCC)SC1=Nc1ccc(S(N)(=O)=O)cc1 (stereo not drawn) | -9%
Cc1ccc(CN2C(=O)CCC2C(=O)NCc2ccc3c(c2)OCO3)cc1 (stereo not drawn) | 24%

Sorted by SMILES length (high to low): three of the compounds above.
SMILES | AmpC inh no det
CCN1CCc2c(sc(NC(=O)c3ccc(S(=O)(=O)N4CCOCC4)cc3)c2C(N)=O)C1 | 94%
Cc1ccc(CN2C(=O)CCC2C(=O)NCc2ccc3c(c2)OCO3)cc1 (stereo not drawn) | 24%
O=C(O)CCC(=O)Nc1ccccc1N1CCOCC1 | 3%

Only part of the results is shown, so the mix of outcomes need not match the whole.
